Bioassay records deposited in PubChem by ICCB-Longwood Screening Facility, Harvard Medical School.
MgrA DNA FP: S. aureus MgrA-DNA binding modulation; hit rate 0.13% among 84,000; fluorescence polarization; inhibition, %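 (about 10 µg/mL by stock and volumes)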;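 active = above 50% in either of two replicates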;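 also: 0% = protein plus DNA without compound and 100% = DNA alone without protein; higher means less MgrA bound to DNA so lower polarization; one replicate is shown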
Sa helicase inh: blocks Staphylococcus aureus DNA helicase. purified S. aureus helicase, fluorescence unwinding assay; about half of the hits fall short of the stated cut. inhibition, %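 (tested at about 80 µM)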. hit rate 0.05% among 120,000. AID 485395;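 active = both duplicates at 50% or more, or one of them with a favoured structure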;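 also: 0% = mean of negative control wells and 100% = mean of positive control wells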
An asterisk follows results filed as active; i = inactive; nt = no result given. Not all compounds are listed; the hit share may differ from the screen's.

SMILES	MgrA DNA FP	Sa helicase inh
Cc1c(C#N)c(N)n(CCN2CCOCC2)c1C	nt	-50
CC(=O)OCC(=O)NCc1ccccc1Cl	nt	-17
Cc1ccc2c3c(ccc2n1)NC1=C(C(=O)CCC1)C3c1ccc(O)cc1 (stereo not drawn)	-0.6	10
CC(C)(C)C1=NOC(O)(C(F)(F)F)C1 (stereo not drawn)	1.3	9
O=C(CC(c1ccccc1)c1ccccc1)N1CCc2ccccc2C1	1.1	1
Cn1c2c(c3ccccc31)CC/C2=N\O	nt	22
CSCc1nnc(NC(=O)c2ccc(S(=O)(=O)N3CCCCC3C)cc2)o1 (stereo not drawn)	nt	9
CC12CCC(C/C1=N/OC(=O)c1cc3ccccc3o1)C2(C)C (stereo not drawn)	1.1	5
O=c1sc2ccccc2n1CCCOc1ccccc1	-2.8	5
CCN1C(=O)N(CC)C2C1N(C)C(=O)N2C(C)(C)C (stereo not drawn)	-5.2	12
N#CCCN1CCC(C(N)=O)CC1	-1.9	nt
Nc1nccc(-c2ccc3c(c2)OCCO3)n1	3.0	nt
CCn1cc(CCCC(=O)N2CCCC2)c2ccccc21	-4.1	-1
CC(NS(=O)(=O)c1ccccc1)C(=O)Nc1ccccc1F (stereo not drawn)	-1.5	6
O=C(NCC1CC1)c1ccccc1NC(=O)c1cc2ccccc2oc1=O	-0.2	nt
CCOP(C)(=O)C1(C(=O)OCc2ccccc2)CC1 (stereo not drawn)	-1.6	10
COc1ccc(S(=O)(=O)N(CC(=O)NCC2CCCO2)c2ccc(C)cc2)cc1OC (stereo not drawn)	nt	-32
CC12COC3(C(=O)O)CC1CCC32C (stereo not drawn)	nt	-17
Cc1cccc(NC(=O)C2(N3CCC3=O)CCCCC2)c1	nt	-7
CC1(C)Cc2cccc(OCC(O)CNCc3ccccc3)c2O1 (stereo not drawn)	0.8	11
Cc1sc2nc3scc(CC(=O)NCCO)n3c(=O)c2c1C	0.9	2
COc1ccc(-c2noc(CC(=O)Nc3cccc(OC)c3)n2)cc1	-0.9	13
COc1ccc(OC)c2c1CC(C)(C)N=C2SC	1.8	5
CC(=O)N/C(=C\c1ccc(C#N)cc1)C(=O)O	-1.3	nt
COC(=O)c1c(N)sc2c1CCc1ccccc1-2	nt	21
CCOC(=O)c1c(/N=c2\oc3c(OC)cccc3cc2C(N)=O)sc2c1CCCC2	0.2	nt
O=C(CSCc1ccc(Cl)c(Cl)c1)Nc1ccc(F)c(Cl)c1	-0.8	nt
O=C1c2ccccc2C(=O)N1Cc1csc(-c2cccs2)n1	nt	8
NS(=O)(=O)c1ccc(NC(=O)c2ccc3ncsc3c2)cc1	nt	-18
CC(=O)Nc1ccc(S(=O)(=O)N2CCC(C)CC2)cc1	-0.3	4
CCOc1ccc(N=Cc2cccs2)cc1	4.8	nt
Cc1cc2nc(NCC3COc4ccccc4O3)c3ccccc3n2n1 (stereo not drawn)	nt	-3
Cc1ccc(/C=C2\SC(=S)N(C(C(=O)O)C(C)C)C2=O)cc1 (stereo not drawn)	1.1	16
CCOC(=O)c1c[nH]c2c(C)cccc2c1=O	nt	-20
Cc1cc(/C=C/C(=O)N(C)CC2COc3ccccc3O2)c(C)n1Cc1ccco1 (stereo not drawn)	nt	-1
NC(=S)Cc1nc(-c2ccccc2)cs1	1.1	4
O=C(CSC1=NC(=O)C(c2ccccc2)C(=O)N1)c1ccccc1 (stereo not drawn)	nt	5
Nc1c(C(=O)NC2CCCCC2)sc(=S)n1-c1ccccc1	nt	30
CCc1nnc(NC(=O)Cn2ncc3c2-c2cc(C)ccc2OC3)s1	nt	11
CC(C)C12CCCC(C(=O)O)(CCC1)C2	3.2	1
Cc1cc(C)c2c(N)c(C(=O)c3ccccc3O)sc2n1	nt	22
O=S(=O)(NC1CCCC1)c1ccc(-n2cccn2)cc1	-3.0	-3
COc1ccc(-c2ocnc2C(=O)NCCc2ccccc2)cc1	nt	-1
COc1ccc(C2C(C(=O)NCCCN3CCC(C)CC3)c3ccccc3C(=O)N2C)cc1 (stereo not drawn)	1.9	5
COc1ccc(C2=NC(C(F)(F)F)(C(F)(F)F)N=C(c3ccccc3C)O2)cc1	1.2	7
Cc1cc2oc(=O)cc(CCl)c2cc1C	1.4	-13
CN1C(=O)/C(=C\C=C\c2ccccc2Cl)SC1=S	-0.8	3
N#Cc1ccc(N2C(=O)C3=C(SCCS3)C2=O)cc1	0.8	nt
O=C(NCC1CCN(C2CCCC2)C1)c1ccc(N2CCCS2(=O)=O)cc1 (stereo not drawn)	nt	3
Cc1ccccc1Nc1nc(N)nc(CNc2cccc(F)c2)n1	nt	-7
Cc1cc(C)n(-c2ccc(CSc3nnc(-c4ccc(OC(F)F)cc4)o3)cc2)n1	nt	13
Cc1c(C(=O)O)cc(-c2ccccc2)n1CCNC(=O)OC(C)(C)C	-2.0	nt
CCOC(=O)C1=C(C)OC(N)=C(C#N)C1c1cccs1 (stereo not drawn)	1.1	nt
Cc1cnn(C(=S)NCc2ccco2)c1	0.7	7
CCc1ccc(C(=O)Nc2ccc(S(N)(=O)=O)cc2)cc1	2.1	nt
COc1ccc(S(=O)(=O)NCc2csc(-c3ccccc3)n2)cc1	nt	4
c1coc(-c2nc3nc4ccccc4nc3n2-c2ccc3c(c2)OCCO3)c1	nt	6
O=C(c1ccccc1Oc1ccccc1)N1CCn2c1nc1ccccc12	nt	-3
CC(CCc1ccccc1)NC(=O)COc1ccc(-n2cnnn2)cc1 (stereo not drawn)	nt	6
O=C1C2=C(C(=O)N1c1ccc(Br)cc1)C(c1ccccc1)=NCCN2	1.2	nt

Remaining list, next part
SMILES	MgrA DNA FP	Sa helicase inh
O=C(O)CCc1cccnc1	-1.9	nt
CC1C(c2ccc(F)cc2)=NOC1C(=O)O (stereo not drawn)	-4.0	-5
O=[N+]([O-])c1cc(CO)ccc1N1CCOCC1	0.0	nt
CCOC(=O)c1nc(-c2ccccc2)oc1N1CCOCC1	nt	11
CCC(C)NC(=O)Cn1cnc2onc(-c3ccc(Cl)cc3)c2c1=O (stereo not drawn)	nt	-27
CCOC(=O)c1sc(N)nc1C	-1.8	nt
COC(=O)c1ccc(NC(=O)CSC2=NCCN2)cc1	nt	-14
Cc1cccc(-n2nnc(-c3ccc(C(C)(C)C)cc3)n2)c1	0.2	6
CCOC(=O)C1CCCN(c2cc(C)nc3cc(-c4ccc(Cl)cc4)nn23)C1 (stereo not drawn)	-2.0	4
Cc1ccc(C)c(SCC(=O)NC(C)C(c2cccs2)N2CCCC2)c1 (stereo not drawn)	1.0	-24
COc1cc(CN2c3ccccc3N3CCCCCC32)cc(OC)c1OC (stereo not drawn)	1.2	nt
Cc1cc(CN2C(=O)c3ccccc3S2(=O)=O)no1	-1.0	nt
Cc1cc(C)nc(SCc2ccccc2C(=O)N2CCN(Cc3ccc4c(c3)OCO4)CC2)n1	nt	-10
COc1ccccc1-c1nnc(CC(=O)O)o1	0.0	-8
Nc1ccc(S(=O)(=O)N2CCSC2C(=O)O)cc1 (stereo not drawn)	-1.2	-2
Cc1cc(NC(=O)CSc2nccn2-c2ccccc2)no1	nt	12
CN(C)c1ccc(C2NC(C(=O)O)Cc3c2[nH]c2ccccc32)cc1 (stereo not drawn)	6.2	nt
COCCN(Cc1nc2ccccc2c(=O)[nH]1)C(=O)c1ccc(S(C)(=O)=O)cc1	nt	-6
O=C(c1ccc(S(=O)(=O)N2CCOCC2)cc1)N1CCN(CCN2C(=O)c3cccc4cccc(c34)C2=O)CC1	-1.2	nt
COC(=O)c1ccc(Cn2cnc3ccccc32)cc1	-3.1	nt
Cc1nnc(SCC(=O)NC(C)c2ccc(CC(C)C)cc2)n1N (stereo not drawn)	nt	6
COc1ccccc1C1CC(=O)Nc2cc3c(cc21)CCC3 (stereo not drawn)	1.9	5
CC1=C(C(=O)OCCOc2ccccc2)C(c2ccccc2OC(C)C)NC(=O)N1 (stereo not drawn)	-1.2	nt
CCn1nc(C)cc1C(=O)Oc1ccc(C)cc1	0.4	nt
Cc1cc(/C=C(\C#N)C(N)=S)c(C)n1C1CC1	nt	11
CCOC(=O)C1=C(C)N=c2s/c(=C\c3ccc(N4CCCCC4)o3)c(=O)n2C1c1ccc(OC)c(OC)c1 (stereo not drawn)	5.1	nt
CC(=O)C(C)(C)OC(=O)N1CCOCC1	-1.9	nt
CC(OC(=O)c1nn(C)c(=O)c2ccccc12)C(=O)N1CCCC1 (stereo not drawn)	nt	-4
Cc1cc2nccc(-c3ccccc3)n2n1	-1.9	nt
Cn1c2ccccc2c2nnc(SCCCC(=O)c3ccc(F)cc3)nc21	-0.7	4
CCOc1cc2c(cc1OCC)C1C(C(=O)NCCCN3CCN(C)CC3)c3ccccc3C(=O)N1CC2 (stereo not drawn)	nt	-15
Nc1[nH]n(-c2ccccc2)c(=O)c1C1=NCCCCC1	nt	4
COC(=O)c1c(C)nc2n(CCN3CCCCC3)c3ccccc3n12	nt	13
Cc1cc(C(=O)N2CCN(C(c3ccccc3)c3ccccc3)CC2)on1	1.3	-10
CCN(C(=O)Cc1c(C(=O)O)[nH]c2ccc(Cl)cc12)c1ccc(C)c(C)c1	0.0	6
Cc1cccn2c(=O)c3cc(C(=O)N(C)Cc4ccccc4)sc3nc12	-0.7	1
N#Cc1c(SCCCOc2ccccc2)sc2c(=O)[nH]c(=O)[nH]c12	3.8	-19
CCC(C)c1ccccc1NC(=S)Nc1cccnc1 (stereo not drawn)	-1.0	18
CC(=O)N(/C=C1\SC(=S)N(Cc2ccccc2)C1=O)c1ccccc1	1.2	-3
CCCCOc1ccc(C(=O)Nc2ccc3nc(C)sc3c2Cl)cc1	-1.5	nt
CSc1nc2ccc(NC(=O)CCNC(C)=O)cc2s1	nt	20
COc1ccc(-c2cc3c(nn2)Nc2ccccc2S3)cc1	nt	10
COC(=O)C(C)NC(=O)C1CCCCC1 (stereo not drawn)	nt	8
O=C(CSc1ccc(Br)cc1)NCCCc1ccccc1	4.1	-24
Cc1ccc(C)c(C(=O)CCC(=O)NCc2ccc3c(c2)OCO3)c1	nt	-10
Cc1c(C(=O)COC(=O)c2ccccc2Cl)sc2ccccc12	-1.9	nt
CCS(=O)c1ccccc1C(=O)OC(C)C(=O)Nc1ncc(Cl)cc1Cl (stereo not drawn)	nt	6
O=C1c2ccccc2C(=O)C2(O)OCCOC12O (stereo not drawn)	nt	23
COC(=O)Cn1ncc2c3ccccc3n(C)c2c1=O	nt	16
COc1cc(/C=C2/SC(N)=NC2=O)ccc1OCc1ccc(Cl)cc1Cl	-3.6	nt
Cc1nc(-c2cccnc2)nc(N2CCCN(c3ncc(C(F)(F)F)cc3Cl)CC2)c1Cl	0.4	nt
O=C(CSc1c2c(nc3ccc(Cl)cc13)CCCC2)NC1CC1	nt	3
CC(C)(C)c1ccc(Oc2ccc([N+](=O)[O-])cn2)c(Cl)c1	-1.2	nt
CC1(C)OC[C@@H]([C@H](O)P(=O)(c2ccccc2)c2ccccc2)O1	0.6	-9
O=c1c2ccccc2sn1-c1ccc(S(=O)(=O)N2CCOCC2)cc1	nt	19
Cc1oc(-c2ccccc2F)nc1CSCC(=O)NC1CC1	nt	5
CCc1nc(-c2ccccc2)cc(=O)[nH]1	-2.1	-13
COCCNC(=O)c1c[nH]c2ccccc2c1=O	-1.1	7
C=CCC(Nc1ccc(OC)c(OC)c1)c1ccco1 (stereo not drawn)	-2.9	10
CC1(C)CC(=NN=C2CC(C)(C)NC(C)(C)C2)CC(C)(C)N1	nt	14

Single records, as listed above. Order of screens: MgrA DNA FP, Sa helicase inh
Profile of CC(C)(C)c1ccc(Oc2ccc([N+](=O)[O-])cn2)c(Cl)c1 → -1.2, nt
Profile of COCCNC(=O)c1c[nH]c2ccccc2c1=O → -1.1, 7
Profile of CCc1nc(-c2ccccc2)cc(=O)[nH]1 → -2.1, -13
Profile of Cc1c(C(=O)COC(=O)c2ccccc2Cl)sc2ccccc12 → -1.9, nt
Profile of O=C(CSc1c2c(nc3ccc(Cl)cc13)CCCC2)NC1CC1 → nt, 3

As entered above.
`COC(=O)Cn1ncc2c3ccccc3n(C)c2c1=O` in Sa helicase inh reads 16
`COc1cc(/C=C2/SC(N)=NC2=O)ccc1OCc1ccc(Cl)cc1Cl` in MgrA DNA FP reads -3.6
`CCS(=O)c1ccccc1C(=O)OC(C)C(=O)Nc1ncc(Cl)cc1Cl` (stereo not drawn) in Sa helicase inh reads 6
`Cc1nc(-c2cccnc2)nc(N2CCCN(c3ncc(C(F)(F)F)cc3Cl)CC2)c1Cl` in MgrA DNA FP reads 0.4
`CC(C)(C)c1ccc(Oc2ccc([N+](=O)[O-])cn2)c(Cl)c1` in MgrA DNA FP reads -1.2
`C=CCC(Nc1ccc(OC)c(OC)c1)c1ccco1` (stereo not drawn) in MgrA DNA FP reads -2.9
`COCCNC(=O)c1c[nH]c2ccccc2c1=O` in Sa helicase inh reads 7

Next section
SMILES	MgrA DNA FP	Sa helicase inh
COc1ccc(NC(=O)C2C3C=CC4(O3)C2C(=O)N(CCCN2CCOCC2)C4C(=O)NC2CCCC(C)C2C)cc1 (stereo not drawn)	nt	-20
Cc1ccc(CC(=O)NCCCn2ccnc2)cc1	nt	11
Cc1ccccc1-n1c(SC2CCOC2=O)nnc1-c1ccncc1 (stereo not drawn)	nt	-4
Cc1cc(C)n(-c2ccc3ccccc3n2)n1	nt	22
Cc1cc(=O)oc2cc(OCC(N)=O)ccc12	nt	11
O=C(COC(=O)C1CCN(c2ccc(C(F)(F)F)cn2)CC1)NC1CCCCC1	nt	15
Cc1nc(NCCC(=O)O)c2c3c(sc2n1)CCCC3	-3.2	15
CCN1/C(=C\C=C\C(=O)c2ccccc2OC)Sc2ccccc21	11	i
O=C(NC1CCCCC1)C1CCCN(S(=O)(=O)c2cccs2)C1 (stereo not drawn)	1.4	12
COC(=O)Cn1c(=NC(=O)c2ccccc2)sc2cc(OC)ccc21	nt	9
CCc1ccc(C(=O)c2cc3ccc(O)cc3oc2=O)cc1	nt	-15
CCSc1nnc(-c2cccc(Cl)c2)n1CC	nt	-8

No new results follow: entries from further up.
SMILES	MgrA DNA FP	Sa helicase inh
O=C(COC(=O)C1CCN(c2ccc(C(F)(F)F)cn2)CC1)NC1CCCCC1	nt	15
Cc1nc(NCCC(=O)O)c2c3c(sc2n1)CCCC3	-3.2	15
